Source: PubChem BioAssay
MLL AF4-AF9 inh: inhibitors of AF4 peptide binding to AF9, primary screen, biochemical, AlphaScreen, biotin-AF4 peptide, FLAG-AF9, single point | Protein AF-9 (Homo sapiens), P42568 | inhibition, % at 10 µM | 350,000 compounds, 0.47% hits | AID 651704, 2012;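 active means every replicate reaching a set inhibition limit, whatever the replicate mean, cut at about 25% in these data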;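 further: 0% = plate neutral control median and 100% = total signal loss; the record names both 10 and 1 µM as test concentration; the first replicate is given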
Target sequence (P42568 whole entry, looked up): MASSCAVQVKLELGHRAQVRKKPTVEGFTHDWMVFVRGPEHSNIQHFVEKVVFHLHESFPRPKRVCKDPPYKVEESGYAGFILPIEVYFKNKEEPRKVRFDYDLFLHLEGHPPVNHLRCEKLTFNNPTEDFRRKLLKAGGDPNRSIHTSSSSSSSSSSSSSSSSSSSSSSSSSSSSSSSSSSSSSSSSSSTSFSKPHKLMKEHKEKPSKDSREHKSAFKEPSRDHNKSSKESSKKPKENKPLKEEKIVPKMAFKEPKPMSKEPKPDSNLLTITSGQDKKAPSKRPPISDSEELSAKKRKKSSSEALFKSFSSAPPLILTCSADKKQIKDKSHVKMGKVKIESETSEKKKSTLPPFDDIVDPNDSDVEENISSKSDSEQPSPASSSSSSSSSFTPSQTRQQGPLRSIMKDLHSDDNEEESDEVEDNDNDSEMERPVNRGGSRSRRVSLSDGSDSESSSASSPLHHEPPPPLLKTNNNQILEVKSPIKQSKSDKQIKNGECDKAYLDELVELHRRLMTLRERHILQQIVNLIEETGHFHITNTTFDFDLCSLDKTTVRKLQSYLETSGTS
The depositor's hits bear a star; & = joins results of further samples. This is a subset (hit frequency here may not be typical).

SMILES	MLL AF4-AF9 inh
CC1(O)C(=O)C2(C)C=CC1C1C(=O)N(c3ccccc3)C(=O)C12 (stereo not given)	0.0
Cn1ccc2c(-c3cccc4ccccc34)cc3c(c21)C1CCC3C1 (stereo not given)	2.6
CCC(=O)N[C@H]1C=C[C@@H](CC(=O)NCC2CCCCC2)O[C@@H]1CO	-1.1
COc1ccc([C@H]2C[C@H](n3cc(COC(=O)c4ccccc4)nn3)[C@@H](O)CN2C(=O)c2cccs2)cc1	-1.3
CO[C@H]1CN(C)C(=O)c2cc(NC(=O)NC(C)C)ccc2OC[C@H](C)N(Cc2ccccn2)C[C@@H]1C	-0.2
CCCNC(=O)[C@H]1[C@H](CO)[C@H]2Cn3c(cccc3=O)[C@H]2N1Cc1ccccc1Cl	0.8
O=C(C1CCCCC1)N1[C@H](CO)[C@H]2c3ccccc3N(S(=O)(=O)c3ccccc3)C[C@H]21	-0.5
COc1cc(F)ccc1-c1csc(C(O)c2ccc(F)cc2)n1 (stereo not given)	-1.8
COc1ccc(NC(=O)N(C)C[C@@H]2OCc3cnnn3CCCC(=O)N([C@H](C)CO)C[C@@H]2C)cc1	2.8&1.3
COc1ccc(S(=O)(=O)Nc2ccc3c(c2)C(=O)N([C@@H](C)CO)C[C@H](C)[C@H](CN(C)Cc2ccccc2)O3)cc1	-0.5
CC=Cc1ccc2n(c1=O)C[C@H]1[C@H](CO)[C@@H](C(=O)NCCc3ccccc3)N(C(C)=O)[C@@H]21 (mixture of isomers)	-0.3
COC(=O)C[C@H]1CC[C@@H]2[C@H](COc3ccc(NC(=O)c4ccc(C(F)(F)F)cc4)cc3C(=O)N2C)O1	-1.5

Overlap with the part before: seven compounds, followed by the next part.
SMILES	MLL AF4-AF9 inh
CCCNC(=O)[C@H]1[C@H](CO)[C@H]2Cn3c(cccc3=O)[C@H]2N1Cc1ccccc1Cl	0.8
O=C(C1CCCCC1)N1[C@H](CO)[C@H]2c3ccccc3N(S(=O)(=O)c3ccccc3)C[C@H]21	-0.5
COc1cc(F)ccc1-c1csc(C(O)c2ccc(F)cc2)n1 (stereo not given)	-1.8
COc1ccc(NC(=O)N(C)C[C@@H]2OCc3cnnn3CCCC(=O)N([C@H](C)CO)C[C@@H]2C)cc1	2.8&1.3
COc1ccc(S(=O)(=O)Nc2ccc3c(c2)C(=O)N([C@@H](C)CO)C[C@H](C)[C@H](CN(C)Cc2ccccc2)O3)cc1	-0.5
CC=Cc1ccc2n(c1=O)C[C@H]1[C@H](CO)[C@@H](C(=O)NCCc3ccccc3)N(C(C)=O)[C@@H]21 (mixture of isomers)	-0.3
COC(=O)C[C@H]1CC[C@@H]2[C@H](COc3ccc(NC(=O)c4ccc(C(F)(F)F)cc4)cc3C(=O)N2C)O1	-1.5
C[C@H]1CCCCO[C@@H](CN(C)Cc2ccc3c(c2)OCO3)[C@@H](C)CN([C@@H](C)CO)C(=O)c2cc(NC(=O)Nc3ccc(C(F)(F)F)cc3)ccc2O1	3.1
COc1ccc2c3c(n(C)c2c1)[C@H](CO)N(C)CC31CN(C(=O)c2cccnc2)C1	-0.4
CO[C@@H]1CN(C)C(=O)c2cc(NC(=O)Nc3ccccc3)ccc2OC[C@H](C)N(C(=O)Nc2c(C)noc2C)C[C@@H]1C	1.4
CC(=O)O[C@@H]1C=C[C@@H](C#Cc2ccc(C(C)(C)C)cc2)O[C@@H]1COC(=O)Nc1ccccc1	-5.2
C[C@H](CO)N1C[C@H](C)[C@H](CN(C)C(=O)c2cnccn2)Oc2ncc(/C=C/c3ccccc3)cc2C1=O	-0.1
CC(C)NC(=O)N[C@H]1C=C[C@@H](CC(=O)NCCCN(C)C)O[C@@H]1CO	0.3
C[C@H]1CN([C@@H](C)CO)C(=O)c2cc(NC(=O)NC3CCCCC3)ccc2O[C@H]1CN(C)S(=O)(=O)c1ccc(F)cc1	-2.4
CO[C@@H]1CN(C)C(=O)c2cc(NC(C)=O)ccc2OC[C@H](C)N(Cc2ccccc2C(=O)O)C[C@@H]1C	-5.8
CO[C@H]1CC[C@@H]2CCN(C)C(=O)CCCN(C)C(=O)c3cccc(C#N)c3OC[C@H]1O2	-0.9
COc1ccc(NC(=O)Nc2ccc3c(c2)C(=O)N([C@@H](C)CO)C[C@H](C)[C@H](CN(C)C(=O)Nc2ccc(F)cc2)O3)cc1	0.8
O=C(NCC1CC1)[C@H]1[C@H](CO)[C@H]2Cn3c(ccc(-c4cccnc4)c3=O)[C@@H]1N2C(=O)C1CCCC1	-3.5
C[C@@H]1CN([C@H](C)CO)C(=O)c2cc(-c3cccnc3)cnc2O[C@H]1CN(C)C	-4.2
COc1ccc2c3c([nH]c2c1)[C@@H](CO)N(Cc1nccs1)CC31CCN(Cc2nccs2)CC1	0.4
Cc1noc(C)c1S(=O)(=O)N(C)C[C@H]1Oc2ccc(NC(=O)CCCCCC(=O)Nc3ccccc3N)cc2CC(=O)N([C@H](C)CO)C[C@@H]1C	0.2
N#C[C@@H]1[C@@H](c2ccc(-c3ccccc3F)cc2)[C@@H](CO)N1C(=O)C1CC1	-0.6
C[C@H](CO)N1C[C@H](C)[C@H](CN(C)Cc2ccc(Oc3ccccc3)cc2)Oc2ccc(NS(=O)(=O)c3ccc(F)cc3)cc2C1=O	2.1
CC(C)C#Cc1cnc2c(c1)C(=O)N([C@H](C)CO)C[C@@H](C)[C@H](CN(C)Cc1cncnc1)O2	-11
COc1ccc(CN(C)C[C@@H]2Oc3ccc(N(C)C)cc3CC(=O)N([C@@H](C)CO)C[C@@H]2C)cc1	4.3
CC(C)CC#Cc1cnc2c(c1)C(=O)N([C@H](C)CO)C[C@H](C)[C@H](CN(C)C(=O)Cc1cccnc1)O2	-5.1
CN1CCN(C(=O)C[C@@H]2CC[C@@H]3[C@H](COC[C@@H](O)CN3C(=O)C3CC3)O2)CC1	-3.1
CN1CCCCN2[C@@H](CO)[C@@H](c3ccc(-c4ccccc4)cc3)[C@@H]2C1	-0.4
CC(C)NC(=O)N1C[C@@H]2[C@H](c3ccccc31)[C@H](CO)N2C(=O)c1ccccc1F	-1.7
COc1ccccc1-c1cnc2c(c1)C(=O)N([C@H](C)CO)C[C@@H](C)[C@@H](CN(C)C(=O)CN(C)C)O2	0.1
COCC#Cc1ccc([C@H]2[C@@H](CO)N3C(=O)CN(C(=O)Nc4ccccc4F)C[C@@H]23)cc1	-4.9
C[C@H]1CN([C@@H](C)CO)C(=O)c2cc(NS(=O)(=O)c3ccccc3)ccc2O[C@@H]1CN(C)Cc1ccc(C(F)(F)F)cc1	2.7
CC(C)NC(=O)N[C@H]1C=C[C@@H](CC(=O)NC2Cc3ccccc3C2)O[C@@H]1CO	-8.4
COC(=O)CCCn1cc(CN(C)C2CN(Cc3cn(CCCC(=O)OC)nn3)S(=O)(=O)C2)nn1 (stereo not given)	-2.3
C[C@@H]1CCCCO[C@@H](CN(C)C(=O)Cc2ccccc2)[C@H](C)CN([C@@H](C)CO)C(=O)c2cc(NC(=O)CCCN(C)C)ccc2O1	-0.1
COC(=O)[C@@]1(Cc2ccc(OC)cc2)[C@H]2c3cc(C(=O)N4CCCC4)n(Cc4ccccc4)c3C[C@H]2CN1C(=O)c1ccccc1	10
c1ccc(-c2nnc(SCc3ccncc3)o2)cc1	-1.8
COc1ccc(-c2ccc([C@@H]3[C@@H](CO)N4CCCCN(C(=O)c5ccc6c(c5)OCO6)C[C@H]34)cc2)cc1	-2.2
O=C(C[C@@H]1CC[C@@H]2[C@H](COC[C@H](O)CN2S(=O)(=O)c2cccc(F)c2)O1)NCCCN1CCOCC1	-2.2
C[C@H](CO)N1C[C@H](C)[C@H](CN(C)C(=O)NC2CCCCC2)Oc2ccc(NC(=O)Nc3ccccc3)cc2C1=O	-3.4
C[C@@H]1CN([C@H](C)CO)C(=O)Cc2cc(N(C)C)ccc2O[C@@H]1CN(C)C(=O)Nc1ccc(C(F)(F)F)cc1	-0.8
C[C@H]1CN([C@@H](C)CO)C(=O)c2cccc(NC(=O)c3cnccn3)c2O[C@H]1CN(C)CC1CCCCC1	-6.4
Cc1ccc(S(=O)(=O)Nc2ccc3c(c2)C(=O)N([C@H](C)CO)C[C@H](C)[C@H](CN(C)S(=O)(=O)c2ccc(F)cc2)OCCCC[C@H](C)O3)cc1	-1.7
CC(C)NC(=O)N(C)C[C@@H]1Oc2ccc(NC(=O)NC3CCCCC3)cc2CC(=O)N([C@@H](C)CO)C[C@@H]1C	-3.7
COc1ccc(NC(=O)Nc2ccc3c(c2)CC(=O)N([C@@H](C)CO)C[C@@H](C)[C@@H](CN(C)Cc2ccc(-c4ccccc4)cc2)O3)cc1	-0.6
COc1ccc(C#Cc2ccc3c(c2)[C@]2(C(=O)N3)[C@H](C(=O)N3CCCCCCC3)[C@H]3C(=O)O[C@H](c4ccccc4)[C@H](c4ccccc4)N3[C@@H]2c2ccccc2OCCO)cc1	0.6
CCc1nc2ccc(C(=O)Nc3ccc(OC)c(OC)c3)cn2c1N(CC)Cc1ccc(OC)c(OC)c1	4.9
COc1ccc(S(=O)(=O)N(C)C[C@@H]2Oc3cc(C#CC4CCCC4)ccc3S(=O)(=O)N([C@@H](C)CO)C[C@@H]2C)cc1	-0.7
Cc1ccc(S(=O)(=O)Nc2cccc3c2O[C@@H](CN(C)C(=O)Nc2ccc(C(F)(F)F)cc2)[C@@H](C)CN([C@H](C)CO)C3=O)cc1	-3.0
COc1ccc(CN(C)C[C@H]2OCCCC[C@H](C)Oc3ccc(NC(=O)c4ccncc4)cc3C(=O)N([C@@H](C)CO)C[C@@H]2C)cc1	1.0
C[C@@H]1CN([C@H](C)CO)S(=O)(=O)c2ccc(C#Cc3cccnc3)cc2O[C@@H]1CN(C)C(=O)Nc1ccc2c(c1)OCO2	6.5
NC(c1ccccc1)c1csc(Nc2ccc(C(=O)NCCCO)cn2)n1 (stereo not given)	0.1
C[C@H]1CCCCO[C@H](CN(C)Cc2ccc(Cl)c(Cl)c2)[C@@H](C)CN([C@@H](C)CO)C(=O)c2cc(NS(C)(=O)=O)ccc2O1	4.0
COCc1cn(CC[C@H]2CC[C@H](NC(=O)c3ccccc3)[C@H](CO)O2)nn1	-1.1
C[C@@H]1CN([C@@H](C)CO)C(=O)c2cc(NC(=O)CCCN(C)C)ccc2O[C@H]1CN(C)S(=O)(=O)c1cn(C)cn1	-1.1

A few values from the entries so far.
Value for C[C@H]1CN([C@@H](C)CO)C(=O)c2cc(NS(=O)(=O)c3ccccc3)ccc2O[C@@H]1CN(C)Cc1ccc(C(F)(F)F)cc1 under MLL AF4-AF9 inh: 2.7
Value for CC(C)NC(=O)N[C@H]1C=C[C@@H](CC(=O)NC2Cc3ccccc3C2)O[C@@H]1CO under MLL AF4-AF9 inh: -8.4

(further entries)
SMILES	MLL AF4-AF9 inh
O=C(C[C@@H]1CC[C@H]2[C@@H](COC[C@H](O)CN2Cc2ccccc2)O1)NCCCN1CCOCC1	-4.2
CCS(=O)(=O)Nc1ccc2c(c1)C(=O)N(C)[C@H]1CC[C@H](CC(=O)NC3CCCCC3)O[C@@H]1CO2	-1.6
C[C@H]1CN([C@@H](C)CO)C(=O)c2cc(NS(=O)(=O)c3ccc(Cl)cc3)ccc2O[C@H]1CN(C)Cc1ccc(-c2ccccc2)cc1	2.6
COCC#Cc1cnc2c(c1)C(=O)N([C@@H](C)CO)C[C@@H](C)[C@@H](CN(C)C(=O)Nc1cccc(F)c1)O2	-3.8
CCS(=O)(=O)Nc1ccc2c(c1)C(=O)N(C)[C@H]1CC[C@H](CC(=O)NC3CCCCC3)O[C@H]1CO2	0.7
COc1ccccc1CNC(=O)C[C@H]1CC[C@H](NC(=O)CN(C)C)[C@H](CO)O1	-2.3
C[C@@H]1CN([C@@H](C)CO)C(=O)c2cccc(NC(=O)c3cnccn3)c2O[C@@H]1CN(C)Cc1ccncc1	-4.1
C[C@H]1CN([C@@H](C)CO)C(=O)c2cccc(NC(=O)c3cnccn3)c2O[C@@H]1CN(C)Cc1ccccc1	-24
COC(=O)C(CC#Cc1ccc2c(c1)[C@]1(C(=O)N2)[C@H](c2ccccc2OCCO)N2[C@H](c3ccccc3)[C@H](c3ccccc3)OC(=O)[C@H]2[C@@H]1C(=O)Nc1nc2ccccc2s1)C(=O)OC	-2.3
CN(C)C(=O)c1ccc(-c2ccc([C@@H]3[C@H]4CN(CCC(F)(F)F)CCCCN4[C@H]3CO)cc2)cc1	-2.7
C[C@H](CO)N1C[C@H](C)[C@H](CN(C)Cc2cncnc2)Oc2cc(-c3cncnc3)ccc2S1(=O)=O	-2.3
CN1C(=O)c2cc(NC(=O)C3CCCC3)ccc2OC[C@@H]2O[C@@H](CC(=O)NCc3ccccc3F)CC[C@H]21	1.2
COCCNC(=O)C[C@H]1C=C[C@H](NS(=O)(=O)c2ccc(C)cc2)[C@H](CO)O1	1.2
CCCN(C)C[C@H]1Oc2cc(C#Cc3ccc(F)cc3)ccc2S(=O)(=O)N([C@@H](C)CO)C[C@H]1C	4.9
Cc1cccc(-c2ccc([C@@H]3[C@H]4CN(S(=O)(=O)c5cccc(C)c5)CCCCN4[C@H]3CO)cc2)c1	-0.5
O=C(N[C@H]1CC[C@H](CCNC(=O)C2CC2)O[C@@H]1CO)c1ccncc1	-2.3
CC(C)NC(=O)Nc1cccc2c1O[C@H](CN(C)Cc1ccc(C(=O)O)cc1)[C@H](C)CN([C@@H](C)CO)C2=O	-0.6
COCC(=O)N1[C@H](CO)[C@H](c2ccccc2)[C@@H]1C#N	-2.4
C[C@@H]1CN([C@H](C)CO)C(=O)Cc2cc(NC(=O)C3CCCCC3)ccc2O[C@H]1CN(C)C(=O)Nc1ccc2c(c1)OCO2	-1.1
CCOC(=O)C(CNc1ccc(OCc2ccccc2)cc1)NC(=O)c1ccccc1 (stereo not given)	1.2
CO[C@H]1CN(C)C(=O)c2ccc(NC(C)=O)cc2OC[C@H](C)N(C(=O)c2ccccc2)C[C@@H]1C	-1.1
COc1ccc2c3c(n(C)c2c1)[C@H](CO)N(C(=O)CC1CC1)CC31CCN(C(=O)C2CCCC2)CC1	0.6
